Compound activity deposited in PubChem BioAssay by National Center for Advancing Translational Sciences (NCATS).
NS1 inh: influenza NS1 inhibition | S. cerevisiae slowed by influenza A NS1, growth recovery by OD600 | Potency, µM (series often up to 46.1 µM), inactives show at the highest dose activity, positive = more growth | 270,000 compounds, 0.4% hits | AID 2326; active means well fitted rising curve with a large enough effect; inconclusive means small, poorly fitted or top-dose-only effect; inactive means no such curve, though single readings can be large or run the other way; note: nearly all actives have a fitted effect of over 50% in size
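S. cerevisiae expressing influenza A NS1, grown in glucose, washed, then diluted 1:100 into pH 6.0 -URA galactose medium with 23 nl compound. Growth recovery read as OD600; NS1-free strain serves as control.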
Cruzain Triton: inhibitors of Trypanosoma cruzi cruzain with detergent | P25779 | purified cruzain, Z-FR-AMC fluorescence, 0.01% Triton | Potency, µM, for inactives: max response, negative = inhibition, usual class: inhibitors | 200,000 compounds, 0.43% hits | AID 1478;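 note: plate controls were neutral wells for no effect and buffer without enzyme for full effect; nearly all actives have a fitted effect of over 40% in size; top concentration of the series not given in the record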
Target sequence (P25779 123-467 limits assumed): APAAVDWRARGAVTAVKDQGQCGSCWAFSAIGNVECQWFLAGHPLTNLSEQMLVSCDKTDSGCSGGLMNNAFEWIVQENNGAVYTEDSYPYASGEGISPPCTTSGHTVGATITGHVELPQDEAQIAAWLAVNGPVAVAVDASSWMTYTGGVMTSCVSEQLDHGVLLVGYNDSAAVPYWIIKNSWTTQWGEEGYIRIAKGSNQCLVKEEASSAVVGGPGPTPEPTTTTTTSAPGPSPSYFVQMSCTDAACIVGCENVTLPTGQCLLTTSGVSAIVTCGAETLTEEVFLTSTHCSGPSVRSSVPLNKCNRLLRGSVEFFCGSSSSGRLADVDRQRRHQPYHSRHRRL
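Detergent-containing run (0.01% Triton X-100) in acetate buffer pH 5.5 with 5 mM DTT: enzyme at 1.5 nM final, 15 min compound preincubation at room temperature, then 2 uM Z-FR-AMC substrate. Activity taken as 60 s fluorescence increase at 360/450 nm.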
LASV entry inh: inhibitors of Lassa virus binding or cell entry. AID 540256. Potency, µM (highest dose often 37.9 µM), for the others: at the highest dose activity change, negative = inhibition, usual class: inhibitors. Lassa virus pseudotype entry inhibition, cell reporter; control for the full effect not named in the record. 300,000 compounds, 1.2% hits; active means well fitted inhibition curve with a large enough effect; inconclusive means small, poorly fitted or top-dose-only effect, or effect the other way; inactive means flat fitted curve, though single readings scatter; tested in HEK293 cells; note: % is set by controls: 0 for no effect and ±100 for the full control effect; nearly all actives have a fitted effect of over 50% in size; luciferase read-out
Marburg entry inh: inhibitors of Marburg virus binding or cell entry; 300,000 compounds, 1.8% hits; AID 540276; Potency, µM (top dose mostly 37.8 µM), without a hit: at the highest dose activity change, negative = inhibition, most hits filed as inhibitors; Marburg virus pseudotyped entry inhibition, cell reporter; control for the full effect not named in the record; about a third of the inactives were read at about 46 µM; active = well fitted inhibition curve with a large enough effect; inconclusive = small, poorly fitted or top-dose-only effect, or effect the other way; inactive = flat fitted curve, though single readings scatter; tested in HEK293 cells; about a fifth of its hits are not listed in these tables; note: % is set by controls: 0 for no effect and ±100 for the full control effect; luciferase read-out
RE007 growth inh: less growth of the S. pombe RE007 Vpr strain; S. pombe RE007 Vpr strain, BacTiter-Glo ATP luminescence, 24 h; control for the full effect not named in the record; Potency, µM (series often up to 92.2 µM), for the others: at the top dose activity change, negative = less growth; 360,000 compounds, 0.21% hits; active = well fitted falling curve with a large enough effect; inconclusive = small, poorly fitted or top-dose-only effect; inactive = no such curve, though single readings can be large or run the other way;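 note: % is set by controls: 0 for no effect and ±100 for the full control effect; nearly all actives have a fitted effect of over 50% in size; the assay follows cell death caused by Vpr and the record does not say whether a fall means rescue or toxicity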
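Fission yeast RE007 carrying one integrated HIV-1 vpr copy, seeded at OD 0.01 in PMG+AL medium with 23 nL pinned compound. Grown 24 h at 30 degrees; viability read by BacTiter-Glo luminescence after 5 min.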
2A StopGo: lowers the luciferase signal of an FMDV 2A StopGo reporter | human cells with a luciferase reporter of 2A StopGo recoding; control for the full effect not named in the record | Potency, µM (titrated, usually from 57.9 µM), inactives show top-dose signal change, negative = less light | 410,000 compounds, 1.2% hits; active = well fitted falling curve with a large enough effect; inconclusive = small, poorly fitted or top-dose-only effect; inactive = no such curve, though single readings can be large or run the other way; tested in HEK293T cells; note: % is set by controls: 0 for no effect and ±100 for the full control effect; nearly all actives have a fitted effect of over 45% in size; luciferase light after 4 h
SARS PLpro yeast: blocks SARS-CoV papain-like protease in a yeast assay. S. cerevisiae expressing SARS-CoV PLpro, growth rescue; control for the full effect not named in the record. Potency, µM (doses to about 32.9 µM), without a hit: at the highest dose activity, positive = growth rescue. 330,000 compounds, 0.19% hits; active means well fitted rising curve with a large enough effect; inconclusive means small, poorly fitted or top-dose-only effect; inactive means no such curve, though single readings can be large or run the other way; note: 0% is about no effect; nearly all actives have a fitted effect of over 55% in size; growth read by luminescence after 48 h
Cruzain inh noDet: blocks cruzain activity in detergent-free assay. P25779. purified cruzain, Z-FR-AMC fluorescence, no detergent. Potency, µM, for inactives: max response, negative = inhibition, usual class: inhibitors. 200,000 compounds, 2.3% hits. AID 1476;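 note: plate controls were enzyme without inhibitor for no effect and buffer without enzyme for full effect; nearly all actives have a fitted effect of over 40% in size; top concentration of the series not given in the record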
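Purified cruzain at 1.5 nM, pre-incubated 15 min with compound at room temperature in 100 mM sodium acetate pH 5.5, 5 mM DTT, 0.00005% Triton X-100. Reaction started with 2 uM Z-FR-AMC; AMC fluorescence increase over 60 s gives rate.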
Numbers without * were called inactive; ? = inconclusive; nt = no result given; [ ] = dose if it differs, or a comment. Unless noted, calls come from the whole dose curve; as a rule, active = well fitted curve in the direction sought with a large enough effect; inconclusive = small, poorly fitted or top-dose-only effect, or another doubt; inactive = no such curve, though single readings can be large; an effect the other way counts as inactive or inconclusive. Potency is the fitted concentration of half-maximal effect.

SMILES	NS1 inh	Cruzain Triton	LASV entry inh	Marburg entry inh	RE007 growth inh	2A StopGo	SARS PLpro yeast	Cruzain inh noDet
CC1=CC(C)(C)Nc2ccc(OC(=O)C(Cc3ccccc3)N3C(=O)C4CCCCC4C3=O)cc21 (configuration not stated)	26.8%	-3.5%	1.12µM*	?	5.1%	-6.7%	-15.8%	-9.9%
NS(=O)(=O)c1ccc(CCNC(=O)c2ccc(Cl)cc2[N+](=O)[O-])cc1	0.2%	nt	5.8%[46.1 µM]	3.3%[46.1 µM]	-4.0%	-19.0%	0.5%	nt
CCc1ccccc1N(C)C(=O)Cn1cnc2sc(C)c(S(=O)(=O)N3CCC(C)CC3)c2c1=O	nt	1.9%	?	?	nt	6.8%	nt	6.5%
N#Cc1cc(C(=O)c2ccccc2O)cn(-c2ccc(Cl)cc2)c1=O	nt	nt	?	?	8.6%	-9.5%	-2.0%	nt
CCCc1nc2c(=O)n(C)c(=O)[nH]c2n1C	12.6%	-1.7%	18.7%	?	-2.7%	-13.7%	-3.9%	-5.6%
Cc1ccc(C(=O)C(C)N2C(=O)NC(C)(c3ccccc3)C2=O)cc1 (configuration not stated)	nt	nt	nt	3.1%[46.1 µM]	-6.4%	-9.9%	0.9%	nt
Nc1nc(NCCOCCO)nc(NCC2CCCO2)c1[N+](=O)[O-] (configuration not stated)	3.7%	nt	nt	nt	7.5%	-14.4%	-0.6%	nt
Cc1ccc(OCC(O)CN2CCN(CC(O)COc3ccc(C)cc3)CC2)cc1 (configuration not stated)	?	4.4%	-14.0%	?	15.4%	-5.9%	-3.6%	-1.7%
Cc1ccc(NC2=C(Cl)C(=O)OC2OC(=O)c2ccccc2)c(C)c1 (configuration not stated)	nt	nt	-22.6%	-22.3%[46.1 µM]	8.7%	-29.6%	-6.4%	nt
COc1ccc(N2CCN(c3nc(Nc4ccc(F)cc4)nc(OC)n3)CC2)cc1	10.4%	2.8%	nt	nt	nt	nt	0.8%	4.6%
Cc1ccc(F)cc1NC(=O)c1ccc(Cn2nc(N3CCN(c4ccccc4)CC3)ccc2=O)o1	nt	5.0%	?	nt	nt	35.5µM*	nt	-3.4%
O=C(CN(c1ccccc1)S(=O)(=O)c1ccccc1)Nc1ccccc1C(=O)NCc1ccco1	-9.9%	-9.0%	?	?	-0.4%	-11.6%	13.8%	-11.8%
Cc1ccc(C(=O)OCC(=O)N(CC(C)C)c2c(N)n(Cc3ccccc3)c(=O)[nH]c2=O)o1	nt	nt	-3.1%	5.5%	14.5%	-8.4%	0.4%	nt
COc1ccc(C2(O)CCN(C(=O)Cc3cccnc3)CC2)cc1	1.9%	3.0%	-3.6%	?	-8.9%	5.2%	4.4%	-5.2%
COc1ccc(CCNC(=O)CN2C(=O)NC(C)(c3ccc([N+](=O)[O-])cc3)C2=O)cc1 (configuration not stated)	-3.0%	nt	-24.6%	-4.5%[14.2 µM]	-11.2%	-0.9%	7.1%	nt
CC1CCCCN1CC(=O)NC(=O)NCc1ccccc1 (configuration not stated)	12.7%	0.8%	-3.0%	12.0%	8.2%	14.3%	24.6%	5.8%
O=C(O)c1cc(Cl)c2c(c1)OCO2	6.0%	nt	nt	nt	6.6%	-5.6%	0.4%	nt
CN1CCN(NC(=O)/C=C/c2ccc(C(C)(C)C)cc2)CC1	1.9%	nt	nt	nt	-3.6%	-19.5%	5.4%	nt
CCC(=O)OC1CCC2C3CCC4CC(=O)C=CC4(C)C3CCC12C (configuration not stated)	nt	nt	?	?	0.6%	?	nt	nt
CC(=O)c1c(C)nn(CC(O)Cn2c3c(c4cc(C)ccc42)CCCC3=O)c1C (configuration not stated)	-9.1%	-12.9%	?	-24.9%	7.8%	-28.1%	1.0%	?
Nc1ccccc1C(=O)NCCN1CCNC1=O	3.1%	nt	nt	nt	-3.1%	5.1%	-0.6%	nt
Cc1ccc(NC(=O)NC(=O)CSc2nnnn2C)c(C)c1	-10.4%	1.8%	0.4%	2.0%	8.3%	45.9%[activator]	8.0%	-12.6%
COc1ccccc1CNc1nc(-c2ccco2)nn1S(=O)(=O)c1ccc(Cl)cc1	nt	-6.5%	-9.3%[46.1 µM]	2.2%[46.1 µM]	nt	0.0%	nt	-8.9%
Cc1cccc(CNC(=O)c2ccccc2NC(=O)C2=CSCCO2)c1	-7.8%	nt	nt	nt	-8.2%	-12.3%	1.6%	nt
CC(C)c1nnc(NC(=O)CCC(=O)NC2CCCCC2)s1	5.2%	nt	3.3%	-27.4%	10.0%	1.6%	0.6%	nt
(more compounds)
SMILES	NS1 inh	Cruzain Triton	LASV entry inh	Marburg entry inh	RE007 growth inh	2A StopGo	SARS PLpro yeast	Cruzain inh noDet
Cc1nn(-c2ccc(N3CCCC3)nn2)c(C)c1CCC(=O)N1CCN(c2ccccc2F)CC1	nt	-4.8%	-1.1%[46.1 µM]	nt	nt	-14.8%	nt	3.6%
Cc1cccc(N2C(=O)/C(=C/N3CCN(C(=O)c4ccco4)CC3)C(=O)NC2=S)c1	5.3%	4.2%	1.6%	6.1%	-6.1%	-3.5%	5.2%	-5.4%
O=S(=O)(c1cccs1)n1cnc2ccccc21	-3.1%	6.3%	11.0%	-2.7%	-6.8%	-16.5%	-2.9%	2.6%
CCC1CN2CCc3cc(OC)c(OC)cc3C2CC1CC1c2cc(OC)c(OC)cc2CCN1C(=O)C(Cc1c[nH]c2ccccc12)NC(=O)OC(C)(C)C (configuration not stated)	nt	nt	?	?	-23.5%	-17.6%	nt	nt
CC(C)OP(=O)(c1ccc(N(C)C)cc1)C(O)c1c(Cl)cccc1Cl (configuration not stated)	-48.5%	-0.7%	3.7%	-28.7%	12.8%	-5.5%	-10.7%	-1.4%
Cc1ccc(/C=C/c2onc(C)c2S(=O)(=O)N2CCC(C(=O)NCc3ccco3)CC2)cc1	nt	-1.8%	-0.2%[46.1 µM]	nt	nt	-18.1%	nt	-8.7%
Cc1ccsc1/C=N/N=C/c1sccc1C	-25.8%	nt	nt	nt	-11.7%	-4.9%	-7.1%	nt
COc1cccc(C2=CC(c3ccccc3)n3nnnc3N2)c1 (configuration not stated)	-13.8%	-2.9%	?	?	-2.9%	nt	-9.3%	-2.6%
O=C(NCc1ccccc1)C1=C[C@@H](C2CC2)C[C@@H](OCCCCO)O1	-2.7%	nt	nt	nt	-16.3%	40.2%[activator]	-0.1%	nt
O=C(NCCc1ccccn1)C(F)(F)C(F)(F)C(F)(F)C(F)(F)C(F)(F)C(F)F	5.9%	4.4%	-6.1%	-24.7%	4.7%	9.5%	5.2%	9.5%
COC(=O)CC1C(=O)NCCN1C(=O)CSc1nc2ccccc2c(=O)n1CC(C)C (configuration not stated)	nt	nt	nt	-1.0%[46.1 µM]	0.2%	4.0%	1.8%	nt
O=C(c1ccc(-c2ccccc2)cc1)C1CCCN(C(=O)c2ccncc2)C1 (configuration not stated)	1.9%	nt	?	?	31.9%	?	1.5%	nt
CCc1cc(C(=O)N2CCCC(C(=O)c3cccc(OC(C)C)c3)C2)n(C)n1 (configuration not stated)	2.7%	nt	-1.3%[46.1 µM]	0.4%[46.1 µM]	1.7%	-27.4%	-1.3%	nt
c1ccc2[nH]c3cc4ncnc4cc3nc2c1	-18.4%	-8.6%	-11.2%	-25.0%	-4.1%	6.4%	-10.1%	-18.9%
Cc1ccc(-c2nnn(CC(=O)N(Cc3ccccc3F)C(C(=O)NC3CCCC3)c3ccncc3)n2)o1 (configuration not stated)	-39.0%	-7.7%	9.0%	19.7%[46.1 µM]	-3.6%	5.3%	7.7%	?
CCc1nn(CC(=O)NC(C)C)c(=O)c2cc3cc(F)ccc3n12	nt	-0.4%	nt	?	nt	-1.4%	nt	12.4%
COc1ccccc1CNC(=O)Cn1c(=O)ccc2cc(S(=O)(=O)N3CCC(C)CC3)ccc21	nt	-5.3%	0.8%[46.1 µM]	nt	nt	-8.1%	nt	-13.9%
CCc1ccc(NC(=O)CN2CCN(c3ccc(OC)cc3)CC2)cc1	nt	nt	-3.4%[46.1 µM]	5.7%[46.1 µM]	-8.6%	12.0%	nt	nt
O=C(CC(c1ccccc1)c1ccccc1)Nc1ccc(Cl)cn1	2.5%	-5.1%	?	?	12.6%	-41.6%	-19.9%	?
Cc1ccc(S(=O)(=O)N(C(=O)c2ccncc2)c2ccc(OC(=O)c3ccncc3)cc2)c(C)c1	8.5%	-1.4%	2.3%	5.9%	33.9%	17.0%	-27.3%	?
Cc1cc(C)cc(OCC(O)CN2CCN(C(=O)c3ccco3)CC2)c1 (configuration not stated)	-1.9%	nt	0.3%[46.1 µM]	1.4%[46.1 µM]	2.6%	-4.3%	1.0%	nt
CCOC(=O)Nc1ccc2c(c1)N(C(=O)CCN(C)C)c1ccccc1CC2	-5.1%	nt	nt	nt	-6.6%	-2.3%	-3.2%	nt
c1ccc2c(c1)Cn1nc(Cc3nc4c(s3)CCCC4)nc1-2	-47.1%	3.3%	10.2%	5.4%	15.7%	47.3%[activator]	3.0%	7.4%
COc1ccc(NC(=O)CN(C)C(=O)c2cccc(NS(=O)(=O)c3ccc(Br)cc3)c2)cc1	nt	nt	6.2%	?	-7.1%	35.0%[activator]	1.9%	nt
Cc1ccc(N(CC(=O)N=Nc2c(O)[nH]c3ccccc23)S(C)(=O)=O)c(C)c1	nt	nt	-7.0%	?	-4.3%	-10.9%	1.7%	nt
The listing continues:
SMILES	NS1 inh	Cruzain Triton	LASV entry inh	Marburg entry inh	RE007 growth inh	2A StopGo	SARS PLpro yeast	Cruzain inh noDet
CS(=O)(=O)N(CC(=O)N1CCOCC1)Cc1ccc(Cl)cc1	-14.7%	3.5%	9.2%	9.0%	-6.4%	-9.5%	1.1%	0.2%
CCOC(=O)N1CCN(C(=S)NC2CCCC2)CC1	2.5%	nt	nt	nt	-8.0%	-6.6%	11.7%	nt
O=C(NNCc1ccccc1)c1ccccn1	nt	nt	?	?	2.8%	11.0%	nt	nt
CCc1nc(N2CCN(C(=O)c3ccccc3)CC2)c(C#N)c2c1COC(C)(C)C2	-15.2%	-7.6%	?	?	5.3%	?	-0.8%	3.6%
O=C(Cc1ccc(Cl)cc1)Nc1ccccc1C(=O)N1CCCCC1	-2.8%	nt	-6.8%	-17.1%	2.1%	3.1%	6.7%	nt
COc1ccc(-n2ncc3c(N(C)C4CCCCC4)ncnc32)cc1	0.0%	nt	nt	nt	3.1%	10µM*	-1.3%	nt
Cc1cc(C)cc(OCCNC(=O)C2CCN(S(=O)(=O)c3ccccc3)CC2)c1	6.2%	nt	-0.5%	-15.8%	3.7%	-22.4%	2.8%	nt

Rows are unselected. About 4.5% of those tested had a hit in this group.
